gsp ag: agonists of gsp mutant (McCune-Albright syndrome); gsp mutant cells, cAMP HTRF, 30 min; control for the full effect not named in the record; actives 0.13% (n = 340,000); Potency, µM (highest dose often 76.9 µM), for inactives: top-dose activation (cAMP increase), hits mostly activators; AID 624287; active = well fitted activation curve with a large enough effect; inconclusive = small, poorly fitted or top-dose-only effect, or another doubt; inactive = no such curve, though single readings can be large or run the other way; cell line not stated here;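 note: phosphodiesterase inhibitor Ro 20-1724 added with compounds to block cAMP breakdown; potency is the fitted concentration of half-maximal effect; nearly all actives have a fitted effect of over 60% in size; about a fifth of the inactives were tested at one dose only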
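Cells in DMEM/10% FBS with G418 were pretreated with compounds in DMSO plus […] (300 uM stock) for 30 min at 37C. cAMP was measured by HTRF (cAMP-d2 plus anti-cAMP antibody-K) after 30 min at room temperature.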
TRPML1 blocker: human mucolipin-1 channel inhibition. TRPML1-inducible cells, Ca2+ dye fluorescence, FDSS; stronger effect = lower value; inhibition of EC80 agonist-evoked calcium signal. activity change, negative = inhibition, % (test concentration not listed). actives 0.02% (n = 390,000); in the data active means activity change below about -50%; inconclusive means about -30% to -50%; inactive means above about -30%;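 note: stimulus is agonist 54-4 at its EC80 concentration; % is set by controls: 0 for no effect and ±100 for the full control effect; compound concentration not given in the record; the text of the record puts the active cut at -80%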
Target sequence (Q9GZU1 whole entry, looked up): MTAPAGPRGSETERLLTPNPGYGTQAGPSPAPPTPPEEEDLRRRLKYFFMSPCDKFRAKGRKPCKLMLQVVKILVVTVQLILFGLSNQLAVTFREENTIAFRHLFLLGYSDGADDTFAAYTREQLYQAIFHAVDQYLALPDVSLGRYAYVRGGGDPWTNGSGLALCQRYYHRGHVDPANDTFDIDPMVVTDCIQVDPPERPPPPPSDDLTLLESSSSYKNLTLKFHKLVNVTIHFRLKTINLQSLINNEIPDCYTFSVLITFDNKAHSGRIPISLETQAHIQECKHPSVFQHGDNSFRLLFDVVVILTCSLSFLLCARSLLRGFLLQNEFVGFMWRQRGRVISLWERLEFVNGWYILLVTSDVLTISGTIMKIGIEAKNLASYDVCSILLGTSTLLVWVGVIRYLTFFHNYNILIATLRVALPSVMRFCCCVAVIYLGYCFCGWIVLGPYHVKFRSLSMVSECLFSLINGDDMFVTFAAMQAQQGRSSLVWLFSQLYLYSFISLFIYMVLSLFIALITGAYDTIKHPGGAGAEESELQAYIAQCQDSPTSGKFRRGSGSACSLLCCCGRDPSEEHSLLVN
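Tet-induced TRPML1-DL cells loaded with Ca8 no-wash calcium dye were read kinetically on FDSS. Compound addition was followed by EC80 agonist 54-4 (4 uM final); inhibition was read over 110 s.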
Menin MLL FP FL: displaces fluorescein MLL peptide from human menin; FP activity change, % at 61.4 µM; Fluorescence polarization, fluorescein-MLL peptide displacement from menin; 290,000 tested, under 10 active; inconclusive = falling polarisation curve, or a change in total fluorescence; inactive = total fluorescence flat and polarisation flat or rising; no compound was filed as active; the % refers to the polarisation; negative = inhibition;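 note: % of control where 0% means no effect; inhibitors lower the polarisation; unlabelled MLL peptide was the positive control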
ClpP mod: qHTS Assay for Activators of ClpP; Potency, µM (top dose mostly 57.5 µM), for the others: at the top dose activity change, negative = active; AID 651965, 2013; purified B. subtilis ClpP, FRET peptide cleavage, 20 min; actives 1.9% (n = 340,000); active = well fitted falling curve with a large enough effect; inconclusive = small, poorly fitted or top-dose-only effect; inactive = no such curve, though single readings can be large or run the other way; note: potency is the fitted concentration of half-maximal effect; the source files actives as falling curves though it sought activators and does not explain the sign; nearly all actives have a fitted effect of over 65% in size; many hits overshoot -100%
Target sequence (P80244 whole entry, looked up): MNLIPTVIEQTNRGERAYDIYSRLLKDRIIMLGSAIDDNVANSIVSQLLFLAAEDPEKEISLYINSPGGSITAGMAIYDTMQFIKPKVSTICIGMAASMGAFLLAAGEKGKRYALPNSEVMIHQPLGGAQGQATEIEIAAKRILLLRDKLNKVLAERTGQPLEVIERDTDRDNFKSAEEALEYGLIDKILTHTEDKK
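ClpP 10 microg/mL final, pH 8 Tris/KCl buffer with BSA, glycerol, Tween-20; compound pinned in; FRET-FV substrate; RT 20 min; Ex320/Em430; ΔFRET vs ADEP 5.8 microM, DMSO, no enzyme.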
TRPML1 ag: agonists of human TRPML1 channel; activation, % (test concentration not listed); Q9GZU1; actives 0.12% (n = 410,000); TRPML1-expressing cells, Ca2+ dye fluorescence, FDSS; host cell line not named in the record; reference of the full effect not given here; in the data active = activation above about 50%; inconclusive = about 30% to 50%; inactive = below about 30%; note: 0% is about no effect; the text of the record puts the active cut at 80%
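Calcium fluorescence on an FDSS kinetic reader gave the read-out. Tet-induced TRPML1-DL cells were plated overnight, dye-loaded (Ca8 with quencher, 45-90 min, room temperature, dark), then read 110 s after compound addition, and again 110 s after 4uM final 54-4 (EC80).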
gsp antag: antagonists of gsp mutant (McCune-Albright syndrome) | gsp-mutant cells, cAMP HTRF, 30 min; control for the full effect not named in the record | Potency, µM (titrated, usually from 76.9 µM), for inactives: top-dose activity change, negative = inhibition, most hits filed as inhibitors | actives 0.4% (n = 340,000) | AID 624288; active = falling curve of any shape with a large fitted effect; inconclusive = falling curve, mostly with a smaller effect; inactive = flat or rising curve; cell line not stated here;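 note: intracellular cAMP measured with PDE inhibitor Ro 20-1724 present during compound exposure; potency is the fitted concentration of half-maximal effect; % is set by controls: 0 for no effect and ±100 for the full control effect; nearly all actives have a fitted effect of over 65% in size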
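HTRF cAMP read-out (cAMP-d2 plus anti-cAMP antibody-K in lysis buffer, 30 min RT). Before lysis, cells are exposed to compounds with […] for 30 min at 37C in DPBS containing Ca/Mg, BSA and Tween 20.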
* = called active by the depositor; ? = inconclusive; . = not tested or not shown; [ ] = remark or other dose.

Values in the order: Menin MLL FP FL | gsp ag | TRPML1 ag | ClpP mod | TRPML1 blocker | gsp antag
> CCOC(=O)C(c1ccccc1)N1CCN(c2ccc(OC)cc2)CC1 (stereo not drawn)
    2.8 | -33%[inhibitor] | -1.0 | -2.6% | -13 | 2%
> CCn1cc(S(=O)(=O)c2ccccc2)c(=O)c2cc(F)c(N3CCCCCC3)cc21
    . | . | -0.2 | 32µM* | -3 | .
> C=CCNc1nc(Cl)nc(NC2CCCCC2)n1
    3.5 | 5%[15.4 µM] | 1.4 | -11% | -24 | 0%
> CC(C)N(Cc1nc(-c2ccc(Cl)cc2)no1)C(=O)C(c1ccccc1)c1ccccc1
    -1.5 | 13% | 0.8 | -2.7% | 66 | -10%
> C[C@@H]1CC=C[C@H]2[C@H]1C(=O)N(Cc1ccccc1)[C@H]2c1ccc(-c2cc3ccccc3s2)cc1F
    1.0 | -5% | -0.6 | 4.1% | 57 | 1%
> COC(=O)c1c(C)nc(C)c(C(=O)OC)c1-c1ccsc1
    0.7 | 22% | -0.9 | -0.2% | -4 | 3%
> CCN(CC)CCNC(=O)c1ccc(NC(=O)c2c(F)cccc2Cl)cc1
    0.9 | -6%[15.4 µM] | 0.3 | . | 3 | -11%
> Cc1ccc(-n2nnnc2SCC(=O)c2c(N)n(C3CC3)c(=O)[nH]c2=O)cc1
    . | 1% | -1.1 | 0.0% | -5 | 8%
> COCCNC(=O)c1sc2ncn(CC(=O)N3CCCCC3)c(=O)c2c1C
    2.6 | -8% | -0.5 | 1.1% | 2 | 2%
> CCc1ccc(CN(Cc2ccco2)C(=O)c2cc(-c3ccc(Cl)cc3)on2)cc1
    . | . | 0.4 | -0.9% | -2 | .
> COc1ccc(/C=C/C(=O)OCC(=O)NCc2ccccc2Cl)cc1OC
    . | -4% | 2.0 | 74% | 0 | -16%
> CC(=O)C(C)Oc1ccc2c3c(c(=O)oc2c1)CCCC3 (stereo not drawn)
    2.5 | -3% | 0.0 | 39% | 15 | 13%
> Cc1noc(C)c1C(=O)OC(C(=O)NC1CCCC1)c1ccc(F)cc1 (stereo not drawn)
    2.7 | 1% | 0.5 | 1.7% | 9 | -2%
> CN(c1ccccc1)S(=O)(=O)c1cccc(C(=O)OCC(=O)NCc2ccccc2)c1
    . | 6% | 1.0 | 3.3% | 13 | -18%
> CCOC(=O)C1=C(O)/C(=C\c2cccs2)N=C1C
    1.2 | -1% | 0.1 | 0.7% | -8 | ?
> CCOc1ccc(C2/C(=C(\O)c3ccc4c(c3)OCCO4)C(=O)C(=O)N2CCN2CCOCC2)cc1OCC (stereo not drawn)
    . | ? | 0.3 | -0.4% | -15 | 6%
> CCCN1C(=O)C(O)(CC(=O)c2ccc3c(c2)OCCO3)c2ccccc21 (stereo not drawn)
    3.8 | 6% | -0.1 | -5.8% | 34 | -9%
> COc1cccc(N2CCN(c3ccc(N4C(=O)CCC4=O)cc3[N+](=O)[O-])CC2)c1
    -2.5 | 4%[15.4 µM] | 0.1 | . | 8 | -24%
> CC[N+]1(CC(O)COC2CC(C)CC(C)(C)C2)CCOCC1 (stereo not drawn)
    0.8 | 21% | -0.7 | . | 5 | 8%
> COc1cccc(/C=N/n2cnc3ccccc32)c1OC
    1.1 | -2% | 1.2 | -9.4% | 33 | -10%
> COc1ccccc1C(=O)NC1CCN(C(=O)Nc2ccc(C)cc2)CC1
    1.4 | -14%[15.4 µM] | -0.4 | . | 1 | -13%
> O=C(COC(=O)c1cc2ccccc2oc1=O)Nc1cccc(S(=O)(=O)N2CCCCCC2)c1
    . | 16% | -0.2 | ? | 11 | 11%
> CC1CCc2nn(CC(=O)N3CCCCCC3)cc2C1 (stereo not drawn)
    1.5 | -6% | 1.4 | -1.5% | -8 | 9%
> O=C1CSC(c2cccnc2)N1c1cccc(Cl)c1 (stereo not drawn)
    -0.8 | 14%[15.4 µM] | -0.5 | . | -2 | .
> COc1cc(OC)cc(-n2c(=O)c3ccccc3n(CC(=O)NCCc3ccc(OC)c(OC)c3)c2=O)c1
    . | . | -0.8 | -1.6% | -7 | .
> O=C(NCc1cc2ccccc2[nH]1)c1ccccc1F
    -10 | -3%[15.4 µM] | -0.4 | 4.3% | 1 | 1%
> Cc1ccc(NC(=O)C2=C(O)c3sccc3N(C)S2(=O)=O)cc1
    0.5 | -9% | -0.3 | 1.2% | -9 | ?
> O=C(NCC(=O)N(CC1CCCO1)C(C(=O)NC1CCCCC1)c1ccccc1)c1ccco1 (stereo not drawn)
    -2.0 | -9% | 0.4 | 0.4% | -4 | 22%
> Cc1cccc(NC(=O)c2c(C)cc(=O)oc2C)n1
    3.1 | 6% | 0.3 | 0.9% | -19 | 8%
> Cc1ccsc1CN(C(=O)c1oc2ccccc2c1C)C1CCS(=O)(=O)C1 (stereo not drawn)
    . | . | 1.0 | 0.2% | 44 | .

Single records (already shown).
CCCN1C(=O)C(O)(CC(=O)c2ccc3c(c2)OCCO3)c2ccccc21 (stereo not drawn) is entered as Menin MLL FP FL: 3.8; gsp ag: 6%; TRPML1 ag: -0.1; ClpP mod: -5.8%; TRPML1 blocker: 34; gsp antag: -9%
COCCNC(=O)c1sc2ncn(CC(=O)N3CCCCC3)c(=O)c2c1C is entered as Menin MLL FP FL: 2.6; gsp ag: -8%; TRPML1 ag: -0.5; ClpP mod: 1.1%; TRPML1 blocker: 2; gsp antag: 2%

Next part:
Values in the order: Menin MLL FP FL | gsp ag | TRPML1 ag | ClpP mod | TRPML1 blocker | gsp antag
> COc1ccc(Cl)cc1NS(=O)(=O)c1cccc(C(=O)NCC(c2ccco2)N2CCCC2)c1 (stereo not drawn)
    . | 0%[15.4 µM] | 1.4 | -3.0% | -1 | -10%
> COc1ccc(-n2c(C)cc(C(=O)Cn3nnc4ccccc4c3=O)c2C)cc1
    7.1 | -41%[inhibitor] | 2.1 | -2.3% | -1 | ?
> CCN1CCN(c2nc(-c3ccc(F)cc3)cc(=O)[nH]2)CC1
    2.8 | ? | 0.9 | . | 10 | -1%
> CC1(CCc2ccccc2)NC(=O)NC1=O (stereo not drawn)
    . | -34%[inhibitor] | -0.3 | 0.8% | -7 | 3%
> CS(=O)(=O)c1ccc(Cl)c(C(=O)NCC2CCCCC2)c1
    4.3 | -10% | 1.0 | -5.5% | -13 | 2%
> CCOC(=O)c1ccc(S(=O)(=O)N2CCN(C)CC2)cc1
    6.5 | ? | 0.6 | 0.0% | 3 | 2%
> COc1ccc(N2C(=O)c3ccc(C(=O)Nc4ccccc4O)cc3C2=O)cc1
    -3.8 | -11% | 0.4 | -0.6% | -5 | 0%
> CC12CCC(C(=O)N(c3cccc(Cl)c3)C1=O)C2(C)C (stereo not drawn)
    0.4 | -27% | 1.2 | 1.3% | -4 | 14%
> Cc1nnc(NC(=O)CSc2ncn(-c3ccccc3)n2)s1
    0.6 | 6%[15.4 µM] | -0.7 | . | 21 | 4%
> O=C(Nc1ccccc1)c1ccc2snnc2c1
    1.2 | -11%[15.4 µM] | -0.6 | . | 1 | 0%
> CC(=O)Nc1ccc(/C(C)=N/Nc2nc(N3CCOCC3)nc(N3CCOCC3)n2)cc1
    -2.2 | 35%[15.4 µM] | -0.2 | . | 18 | 6%
> OCC1CCCCN1CC(O)COC(c1ccc(F)cc1)c1ccc(F)cc1 (stereo not drawn)
    -8.3 | 1% | -1.0 | 1.5% | 7 | 6%
> COc1ccccc1NC(=O)C/C(C)=N/NC(=O)C12CC3CC(CC(C3)C1)C2
    -0.8 | -14%[15.4 µM] | -1.0 | . | -14 | ?
> Nc1nc(-c2cccs2)c(-c2cccs2)s1
    1.1 | 3% | 2.0 | -4.7% | 3 | 5%
> CCN(CC)C(=O)[C@H]1CC(CC(=O)NCc2ccc(OC)c(OC)c2)C(=O)N2CCc3c([nH]c4ccc(OC)cc34)[C@]12C (stereo partly drawn)
    . | . | 0.2 | -3.4% | -4 | 6%
> Cc1cc(OC(C)C(=O)NCCc2c[nH]c3ccccc23)c2c(C)cc(=O)oc2c1 (stereo not drawn)
    2.0 | . | . | 0.0% | . | -12%
> CCOCCCNC(=S)Nc1ccc(Br)cc1Cl
    3.5 | 1%[15.4 µM] | 0.0 | . | 20 | -1%
> Cc1cc(=O)oc2cc(OCc3ccc(C(=O)OCC(=O)Nc4ccc(N(C)C)cc4)cc3)ccc12
    -1.1 | -14% | 0.1 | . | -7 | -20%
> O=C(Nc1ccccc1C(=O)NCc1ccccc1)c1ccccc1Br
    7.6 | 6% | 6.3 | -2.0% | 10 | -8%
> CCC1=NN(C(=O)CCc2ccc3c(c2)OCO3)C(O)(C(F)(F)F)C1 (stereo not drawn)
    5.9 | -9%[15.4 µM] | 2.0 | . | -26 | 8%
> CSc1nc(Sc2cccc(Cl)c2)c2ccccc2n1
    -0.7 | 0% | 1.7 | ? | -1 | -5%
> Cc1ccc(Cl)cc1NC(=O)Cn1c(=O)n(CCCS(=O)(=O)C2CCCCC2)c(=O)c2ccccc21
    . | . | 2.0 | -4.5% | 6 | .
> CC1CCC(NC(=O)Cn2cnc3sccc3c2=O)CC1 (stereo not drawn)
    . | 27% | 0.1 | 0.5% | 1 | 5%
> COc1ccc(CNC(=O)C(C)N2C(=O)NC(c3ccccc3)(c3ccccc3)C2=O)cc1 (stereo not drawn)
    . | -1% | -0.7 | 0.9% | -10 | -15%
> CCOc1ccccc1-n1nnnc1SC(C)C(=O)OC (stereo not drawn)
    -0.5 | -7%[15.4 µM] | -0.5 | . | 0 | -7%
> CCCCOCCCNC1=NCCCCC1
    -0.9 | 1% | -0.3 | 1.1% | 23 | -2%
> O=C(CSc1ccc(-c2ccco2)nn1)NCc1ccc(Cl)cc1
    -1.2 | 9% | 2.1 | -3.4% | -21 | -3%
> COc1ccc(S(=O)(=O)NC2CCSc3ccccc32)cc1NC(C)=O (stereo not drawn)
    -0.4 | 3%[15.4 µM] | -0.5 | . | 1 | 5%
> Cn1c(SCC(=O)NCc2ccc3c(c2)OCO3)ncc(C(=O)Nc2ccc(F)cc2)c1=O
    . | 7%[15.4 µM] | 2.0 | 0.8% | 14 | 29%
> O=S(=O)(Nc1cccnc1)c1ccc2c(c1)OCCO2
    2.2 | -2% | -0.2 | 0.1% | -5 | 10%

Next part
Values in the order: Menin MLL FP FL | gsp ag | TRPML1 ag | ClpP mod | TRPML1 blocker | gsp antag
> Cc1ccc(C(=O)OCC(=O)NCc2cccs2)cc1
    5.0 | 55% | 4.4 | -0.8% | 0 | 10%
> CCOC(=O)c1c(C)oc2nc(C)nc(NCCc3ccc(C)cc3)c12
    . | . | -0.5 | -2.1% | 4 | .
> Cc1ccccc1NC(=O)C(C)OC(=O)C1CCCO1 (stereo not drawn)
    . | -17% | 0.3 | -1.8% | 2 | .
> CCOC(=O)N1CCN(C(=O)c2ccc(S(=O)(=O)NCc3ccco3)cc2)CC1
    0.2 | -1%[15.4 µM] | -0.4 | 1.2% | -12 | -17%

From PubChem BioAssay
